TRPML1 inh: blocks the human TRPML1 channel; Q9GZU1; TRPML1-inducible cells, Ca2+ dye fluorescence, FDSS; stronger effect = lower value; inhibition of EC80 agonist-evoked calcium signal; activity change, negative = inhibition, % (test concentration not listed); hit rate 0.02% among 390,000; AID 624415; in the data active means activity change below about -50%; inconclusive means about -30% to -50%; inactive means above about -30%;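 also: stimulus is agonist 54-4 at its EC80 concentration; % is scaled to controls: 0 for no effect and ±100 for the full control effect; compound concentration not given in the record; the text of the record puts the active cut at -80%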
Target sequence (Q9GZU1 whole entry, looked up): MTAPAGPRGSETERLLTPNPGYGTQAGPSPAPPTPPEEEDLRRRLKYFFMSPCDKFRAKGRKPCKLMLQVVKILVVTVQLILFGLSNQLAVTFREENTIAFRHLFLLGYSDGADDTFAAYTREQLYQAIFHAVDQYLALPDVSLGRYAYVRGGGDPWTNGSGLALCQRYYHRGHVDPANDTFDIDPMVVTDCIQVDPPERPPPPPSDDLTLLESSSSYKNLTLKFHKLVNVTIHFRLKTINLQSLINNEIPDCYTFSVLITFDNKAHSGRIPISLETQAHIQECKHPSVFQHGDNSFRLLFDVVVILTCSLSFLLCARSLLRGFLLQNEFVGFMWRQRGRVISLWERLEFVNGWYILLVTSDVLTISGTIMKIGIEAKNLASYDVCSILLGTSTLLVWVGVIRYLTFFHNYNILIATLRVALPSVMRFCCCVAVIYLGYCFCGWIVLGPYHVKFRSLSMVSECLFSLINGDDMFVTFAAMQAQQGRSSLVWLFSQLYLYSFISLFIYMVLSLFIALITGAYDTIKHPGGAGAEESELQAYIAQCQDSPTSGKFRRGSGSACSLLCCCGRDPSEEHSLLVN
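Calcium fluorescence in TRPML1-DL cells induced overnight with Tet: a 110 s read after compound pin addition, then a 110 s antagonist read after challenge with 54-4 at 4 uM final (EC80).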
gsp antag: antagonizes gsp, the McCune-Albright syndrome mutation | gsp-mutant cells, cAMP HTRF, 30 min; control for the full effect not named in the record | Potency, µM (highest dose often 76.9 µM), for inactives: at the top dose activity change, negative = inhibition, actives largely listed as inhibitors | hit rate 0.4% among 340,000; active = falling curve of any shape with a large fitted effect; inconclusive = falling curve, mostly with a smaller effect; inactive = flat or rising curve; cell line not stated here;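 also: intracellular cAMP measured with PDE inhibitor Ro 20-1724 present during compound exposure; potency is read from the fitted curve at half-maximal effect; % is scaled to controls: 0 for no effect and ±100 for the full control effect; nearly all actives have a fitted effect of over 65% in size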
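Cells, 2000/well, grown 16–24 h in DMEM 10% FBS with 0.5 mg/ml G418, then compounds plus […] (300 uM addition stock), 30 min at 37C. cAMP read by HTRF (cAMP-d2 and anti-cAMP antibody-K in lysis buffer) after 30 min RT.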
gsp ag: gsp mutant agonism | gsp mutant cells, cAMP HTRF, 30 min; control for the full effect not named in the record | Potency, µM (top dose mostly 76.9 µM), without a hit: at the top dose activation (cAMP increase), actives largely listed as activators | hit rate 0.13% among 340,000 | AID 624287; active = well fitted activation curve with a large enough effect; inconclusive = small, poorly fitted or top-dose-only effect, or another doubt; inactive = no such curve, though single readings can be large or run the other way; cell line not stated here;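 also: phosphodiesterase inhibitor Ro 20-1724 added with compounds to block cAMP breakdown; potency is read from the fitted curve at half-maximal effect; nearly all actives have a fitted effect of over 60% in size; about a fifth of the inactives were tested at one dose only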
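Cells in DMEM/10% FBS with G418 were pretreated with compounds in DMSO plus […] (300 uM stock) for 30 min at 37C. cAMP was measured by HTRF (cAMP-d2 plus anti-cAMP antibody-K) after 30 min at room temperature.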
ClpP mod: qHTS Assay for Activators of ClpP; ATP-dependent Clp protease proteolytic subunit (Bacillus subtilis (strain 168)), P80244; Potency, µM (top dose mostly 57.5 µM), inactives show at the top dose activity change, negative = active; purified B. subtilis ClpP, FRET peptide cleavage, 20 min; hit rate 1.9% among 340,000; active = well fitted falling curve with a large enough effect; inconclusive = small, poorly fitted or top-dose-only effect; inactive = no such curve, though single readings can be large or run the other way; also: potency is read from the fitted curve at half-maximal effect; the source files actives as falling curves though it sought activators and does not explain the sign; nearly all actives have a fitted effect of over 65% in size; many hits overshoot -100%
Target sequence (P80244 whole entry, looked up): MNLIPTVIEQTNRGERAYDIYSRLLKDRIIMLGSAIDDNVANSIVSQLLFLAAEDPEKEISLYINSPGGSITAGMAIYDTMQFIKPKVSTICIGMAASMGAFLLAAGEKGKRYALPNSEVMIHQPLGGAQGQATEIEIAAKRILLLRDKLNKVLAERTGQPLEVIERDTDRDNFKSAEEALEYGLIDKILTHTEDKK
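Buffer: 100 mM Tris/HCl pH8, 100 mM KCl, 0.05% low protease BSA, 2.5% glycerol, 0.01% Tween-20. ClpP 10 microg/mL final; 20 min RT; delta FRET normalized to ADEP and DMSO controls.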
Sfp PPTase inh: inhibitors of Bacillus subtilis Sfp phosphopantetheinyl transferase | Q9F4F7 | Biochemical Sfp PPTase activity, qHTS | Potency, µM, for inactives: max response, negative = inhibition, hits mostly inhibitors | hit rate 3.5% among 310,000; active = well fitted inhibition curve with a large enough effect; inconclusive = small, poorly fitted or top-dose-only effect, or another doubt; inactive = no such curve, though single readings can be large or run the other way;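 also: the enzyme is Sfp with the accession as filed and its product quenches rhodamine fluorescence; potency is read from the fitted curve at half-maximal effect; 0% = enzyme reaction without inhibitor and -100% = no enzyme wells; top concentration of the series not given in the record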
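Buffer: 50 mM Hepes-Na pH 7.6, 10 mM MgCl2, 0.01% Nonidet P-40, 0.01% BSA. Enzyme 15 nM, pre-exposed to compound 15 min; substrates then added and fluorescence change tracked over 30 min.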
Menin MLL FP FL: menin-MLL binding inhibition, fluorescein peptide; Fluorescence polarization, fluorescein-MLL peptide displacement from menin; FP activity change, % at 61.4 µM; 290,000 tested, under 10 active; AID 1766; inconclusive = falling polarisation curve, or a change in total fluorescence; inactive = total fluorescence flat and polarisation flat or rising; no compound was filed as active; the % refers to the polarisation; negative = inhibition;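 also: % of control where 0% means no effect; inhibitors lower the polarisation; unlabelled MLL peptide was the positive control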
TRPV1 potentiator: enhances activation of the human vanilloid receptor TRPV1; Q8NER1; TRPV1-expressing cells, Fluo-8 calcium influx, capsaicin EC20 potentiation; host cell line not named in the record; control for the full effect not named in the record; potentiation, % at 8.33 µM; hit rate 0.02% among 320,000; active means potentiation above 80%; inconclusive means 30% to 80%; inactive means below 30%; also: 0% is about no effect
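Cells expressing TRPV1 were dye-loaded with Fluo-8 and read kinetically: 10 s baseline, 3 min after compound (agonist portion), then 2 min after EC20 capsaicin (allosteric enhancer portion). Calcium-bound dye fluorescence at 480/520 nm.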
* hit, by the source's call; ? = inconclusive; nt = no result given; & = joins results of further samples; [ ] = another dose, or the depositor's remark.

SMILES	TRPML1 inh	gsp antag	gsp ag	ClpP mod	Sfp PPTase inh	Menin MLL FP FL	TRPV1 potentiator
O=C1c2oc3ccccc3c(=O)c2C(c2cccc(O)c2)N1CCCN1CCOCC1 (stereo not drawn)	-10	5%	-3%	-1.6%	-13%	2.2	nt
O=C(NCCC1=CCCCC1)c1cc(S(=O)(=O)N2CCCCC2)ccc1Cl	6	1%	29%[15.4 µM]	nt	nt	nt	3
CC1CN(CC(=O)Nc2cc(S(=O)(=O)N3CCCC3)ccc2Cl)CC(C)O1 (stereo not drawn)	5	-13%	29%	-0.7%	9%	-4.6	1
CCCCc1ccc(NC(=O)OC)cc1	-16	-10%	?	-0.8%	19%	1.3	-15
CC(=O)C1CCC2C3CCC4CC(OC(=O)CCC(=O)O)CCC4(C)C3C(=O)CC12C (stereo not drawn)	-8	?	6%	nt	nt	nt	nt
CCOC(=O)/C(=N\Nc1ccc(Br)cc1)N1CC(C)OC(C)C1 (stereo not drawn)	10	-8%	30%[15.4 µM]	nt	-10%	4.8	-17
Cc1ccc2oc(C(=O)N(Cc3nccn3C)C(C)C)c(C)c2c1	1	14%	-1%	-1.5%	23%	2.9	-7
CCOc1ccc(CCn2c(-c3ccco3)nc3ccccc3c2=O)cc1OCC	7	-7%	-30%	-6.0%	56µM*	4.5	-12
COc1cc(C(=O)Nc2nc(C)cc(C)n2)cc(OC)c1OC	28	4%	-6%[15.4 µM]	-1.0%	18%	-2.3	0
COc1cccc(C(=O)Nc2ccc(S(=O)(=O)Nc3nccc(C)n3)cc2)c1	11	1%	6%	-1.1%	7%	4.6	15
CC1CCN(C(=O)COC(=O)/C=C/c2ccco2)CC1	-21	-7%	-24%	-0.5%	nt	nt	nt
O=C(NC1CCCCC1)NC1C2CC3CC(C2)CC1C3 (stereo not drawn)	-8	1%	11%	1.6%	24%	-1.8	-7
COC(=O)c1cc2c(=O)c3ccccc3oc2nc1C	1	26%	-3%[15.4 µM]	-0.4%	5%	4.8	3
CCN(CC)S(=O)(=O)c1ccc(NC(=O)CSc2nnc(-c3ccc(F)cc3)o2)cc1	-13	2%	10%	-0.3%	8%	-0.8	2
COc1ccccc1Cc1nc(-c2ccncc2)no1	25	1%	19%	1.5%	4%	-1.4	-11
O=[N+]([O-])c1ccc2nc(-c3ccncc3)[nH]c2c1	9	-3%	10µM*	1.1%	6%	1.2	-2
COc1ccc(C2CC3(CC(C)(C)NC(=S)N3)Oc3cc(O)cc(C)c32)cc1 (stereo not drawn)	0	-4%	-32%[inhibitor]	1.5%	-1%	-3.8	?
O=C(OCc1nc2ccccc2s1)c1ccc([N+](=O)[O-])o1	20	2%	-4%[15.4 µM]	nt	-6%	1.0	-5
CC1(c2nnc(-c3cccc(Cl)c3)o2)CC(c2cccc([N+](=O)[O-])c2)=NO1 (stereo not drawn)	-9	-8%	nt	-2.0%	2%	2.0	-6
N#Cc1c(-c2ccccc2)nc(SCC(=O)Nc2ccccc2F)[nH]c1=O	12	13%	?	-4.2%	3%	0.1	7
CC1=CC(C)(C)N2C(=O)C3(N=C(N)NC(Nc4ccccc4)=N3)c3cc(C)cc1c32 (stereo not drawn)	5	5%	-42%[inhibitor]	1.0%	-3%	6.5	-8
CCOc1ccccc1N1CCN(C(=O)CSc2ccc3c(c2)OCCO3)CC1	0	-31%	7%	-2.0%	nt	nt	14
CC(C)c1c(C(=O)N/N=C/C=C/c2ccccc2)nnn1-c1nonc1N	2	5%	18%	0.0%	9%	nt	-27
COCCOC(=O)CSc1ncccc1-c1nc2cc(C)c(C)cc2[nH]1	nt	-19%	28%	3.5%	0%	7.5	-20
O=c1c(-c2ccnn2-c2ccc(F)cc2)cnc2n1CCS2	12	-8%	-31%	0.6%	1%	0.4	0
CC(=O)OCc1c(C(F)(F)F)nn(C)c1Oc1cccc(C(F)(F)F)c1	25	2%	-18%	-1.7%	-6%	1.2	10
O=C(O)c1ccc(N/N=C/c2cc(Br)cs2)cc1	2	-6%	8%[15.4 µM]	1.0%	2%	4.1	?
CCOc1ccc(N/C=C/C(=O)c2ccccc2)c([N+](=O)[O-])c1	1	-2%	2%[15.4 µM]	-6.2%	-2%	0.6	-9
O=C(OCC(=O)N1N=C(c2ccc(Cl)cc2)CC1c1ccco1)c1cccnc1 (stereo not drawn)	3	3%	23%	-7.3%	nt	nt	nt
NC(=O)c1sc2nc3c(c(-c4ccco4)c2c1N)CCC3	5	12%	29%	4.2%	10µM*	1.4	-17
Cc1cccc(OCC(=O)N(Cc2nnc(-c3ccccc3Cl)o2)C2CC2)c1	17	-20%	-32%	1.0%	nt	nt	-9
O=C(NCC1CCCN(C(=O)c2cc(Cl)ccc2F)C1)c1ccc(F)cc1 (stereo not drawn)	-22	0%	-4%	nt	15%	-8.6	-15
Cc1ccc(S(=O)(=O)N2CCC(=O)N2)cc1	17	-4%	0%	-3.2%	10%	4.1	3
COCC(=O)N(Cc1cc2cc(OC)ccc2[nH]c1=O)c1ccccc1OC	-2	-12%	-31%	28µM*	0%	4.4	-4
CNS(=O)(=O)c1ccc(OC)c(-c2nnc3c4ccccc4c(C)nn23)c1	6&-1	12%	16µM*	?	4%	1.1	24
COc1ccccc1N1CCN(C(=S)Nc2ccc3nc(N4CCOCC4)cc(C)c3c2)CC1	-17	-9%	17%[15.4 µM]	nt	-11%	3.6	-16
O=C(Cc1ccccc1)NC(=S)Nc1cc(C(F)(F)F)ccc1Cl	29	9%	-19%	-1.5%	22%	1.4	8
CCn1cc(C(=O)N2CCc3ccccc3C2)c(=O)c2cc(S(=O)(=O)N3CCCCC3)ccc21	nt	nt	nt	nt	4%	1.1	-7
CSc1ccccc1NC(=O)COC(=O)CCC(=O)c1ccc(F)cc1	-15	4%	-5%[15.4 µM]	-2.7%	nt	nt	nt
COc1ccc(S(=O)(=O)N2CCC(C(=O)NCc3cccs3)CC2)cc1	-2	-5%	-20%[15.4 µM]	1.3%	16%	-3.5	8
COc1ccc(-c2nnc(SCC(=O)N(Cc3ccccc3)C(C)(C)C)o2)cc1OC	16	?	0%	-6.3%	-8%	-1.6	-11
O=C(/C=C/c1ccco1)Nc1ccccc1C(=O)O	1	-39%	-11%[15.4 µM]	nt	18µM*	?	13
Cc1ccc(NC(=O)c2ccc(OCC3CCCO3)cc2)cc1 (stereo not drawn)	2	18%	-31%[inhibitor]	-2.5%	23%	6.2	-7
O=C(/C=C/Nc1ccc([N+](=O)[O-])cc1)c1ccc(Br)cc1	15	9%	13%	-0.9%	3%	nt	-12
C=CCn1cccc(C(=O)Nc2ccc(C)cc2)c1=O	3	-8%	?	0.6%	7%	1.1	-13
CN(C)C(=O)CSc1nnc(CCN)o1	2	2%	-2%	0.8%	9%	5.3	5
COc1cc(CN2CCC(C(=O)N3CCCC(C)C3)CC2)cc(OC)c1O (stereo not drawn)	3	6%	-7%	-0.1%	-19%	2.4	-1
O=C1C2CCCCN2C(=O)N1CCCN1CCN(c2cccc(C(F)(F)F)c2)CC1 (stereo not drawn)	-3	8%	21%	nt	nt	nt	nt
Cc1nc(N)sc1C(=O)N1N=N1	-7	-1%	3%[15.4 µM]	nt	-27%	-0.2	nt
CCO[C@@H]1OC(C(=O)N2CCN(Cc3ccccc3)CC2)=C[C@H](c2ccc(Br)cc2)[C@H]1CCCO	1	-18%	18%	-0.8%	-13%	-0.7	?
The listing continues:
SMILES	TRPML1 inh	gsp antag	gsp ag	ClpP mod	Sfp PPTase inh	Menin MLL FP FL	TRPV1 potentiator
COc1cc(CNc2ccc(C)c(C)c2)cc(OC)c1OC	7	-23%	-3%	-1.3%	?	0.4	2
Cc1csc(SCC(=O)NC(C)c2ccccc2)n1 (stereo not drawn)	-17	5%	-2%	-0.9%	9%	-3.3	1
c1ccc2c(c1)Nc1cc3ccccc3cc1S2	2	3%	9%[15.4 µM]	nt	6%	5.1	19
CC1=NN(Cc2c(C)nn(Cc3ccccc3)c2C)C(C)(C)C1	12	6%	11%[15.4 µM]	?	2%	1.6	-10
Nc1c(N(Cc2ccccc2)C(=O)COc2ccc(F)cc2Cl)c(=O)[nH]c(=O)n1Cc1ccccc1	-7	-25%	-2%	1.7%	nt	nt	nt
C=CCNC(=S)Nc1sc2c(c1C#N)CCCC2	15	-4%	16%[15.4 µM]	-2.9%	?	?	-6
NS(=O)(=O)c1ccc(N=Nc2c(=O)[nH]n3c(=O)c4c([nH]c23)CCCC4)cc1	8	?	12%	nt	7%	7.8	-12
CC(C)CC1C(=O)N(Cc2cn(Cc3ccco3)nn2)CCS(=O)(=O)N1Cc1ccc(-c2ccc(Cl)cc2)cc1 (stereo not drawn)	-1	nt	?	-0.6%	nt	nt	nt
COc1cccc2c1-c1c(C(=O)O)cccc1C2=O	nt	-1%	2%	-1.6%	12%	-5.2	-2
COc1ccc(CNC(=O)CN2CCC(NC(=O)c3cccc(OC)c3)CC2)cc1	12	-3%	2%[15.4 µM]	nt	nt	nt	nt
CCOC(=O)Cc1csc(NC(=O)CSc2nnc3ccccn23)n1	-13	-12%	6%[15.4 µM]	nt	17%	1.1	-3
COc1ccccc1NS(=O)(=O)c1ccc(C)c(NC(=O)NCCCl)c1	-23	4%	4%[15.4 µM]	nt	89µM*	-3.2	-1
Cc1ccc(C)c(NC(=O)CSc2nc3c(oc4ccccc43)c(=O)n2-c2ccccc2)c1	-3	-2%	0%	-3.9%	?	1.6	0
CCOc1cc(N2CCOCC2)c(OCC)cc1NC(=O)c1cnccn1	5	2%	-4%[15.4 µM]	0.9%	nt	nt	nt
CCC(Cc1ccccc1)NC(=O)Cn1ncc2ccsc2c1=O (stereo not drawn)	-16	10%	-29%	-2.2%	15%	-1.1	-7
CC1(C)Cc2c(sc(/N=C/N3CCOCC3)c2C#N)C(C)(C)N1	20	9%	?	-2.3%	20%	4.9	1
COc1ccc(-n2c(=O)c3c(C)c(C)sc3n(Cc3cccc(F)c3)c2=O)c(OC)c1	nt	-27%	?	-0.5%	-7%	15	-10
CC(C)c1ccc(/C=C/C(=O)NCCCN2CCOCC2)cc1	-8	12%	-6%	1.1%	nt	nt	-20

From PubChem
